# gsp antag – qHTS for Antagonists of gsp, the Etiologic Mutation Responsible for Fibrous Dysplasia/McCune-Albright Syndrome: qHTS. hit rate 0.4% among 340,000. gsp-mutant cells, cAMP HTRF, 30 min; control for the full effect not named in the record. Potency, µM (highest dose often 76.9 µM), without a hit: at the top dose activity change, negative = inhibition, hits mostly inhibitors; active = falling curve of any shape with a large fitted effect; inconclusive = falling curve, mostly with a smaller effect; inactive = flat or rising curve; cell line not stated here;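 further: intracellular cAMP measured with PDE inhibitor Ro 20-1724 present during compound exposure; potency means the concentration at half of the fitted maximal effect; on the % scale 0 is the no-effect control and ±100 the full control effect; nearly all actives have a fitted effect of over 65% in size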
#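 Cells in G418 medium, seeded 16-24 h, 37C; buffer exchange to DPBS + 1 mM CaCl2, 0.5 mM MgCl2, 0.05% BSA; cpds in DMSO + […] (300 uM stock), 30 min 37C; HTRF cAMP detection.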
# Six1-Eya2 inh – qHTS Assay for Inhibitors of the Six1/Eya2 Interaction; AlphaScreen GST-Six1/His-Eya2 binding, biochemical; active compounds read low; control for the full effect not named in the record; activity change, % (no concentration beside the values); hit rate 0.56% among 360,000; AID 651725, 2012; in the data active = activity change below about -65%; inconclusive = about -30% to -65%; inactive = above about -30%; further: on the % scale 0 is the no-effect control and ±100 the full control effect
# Target sequence (O00167 whole entry, looked up): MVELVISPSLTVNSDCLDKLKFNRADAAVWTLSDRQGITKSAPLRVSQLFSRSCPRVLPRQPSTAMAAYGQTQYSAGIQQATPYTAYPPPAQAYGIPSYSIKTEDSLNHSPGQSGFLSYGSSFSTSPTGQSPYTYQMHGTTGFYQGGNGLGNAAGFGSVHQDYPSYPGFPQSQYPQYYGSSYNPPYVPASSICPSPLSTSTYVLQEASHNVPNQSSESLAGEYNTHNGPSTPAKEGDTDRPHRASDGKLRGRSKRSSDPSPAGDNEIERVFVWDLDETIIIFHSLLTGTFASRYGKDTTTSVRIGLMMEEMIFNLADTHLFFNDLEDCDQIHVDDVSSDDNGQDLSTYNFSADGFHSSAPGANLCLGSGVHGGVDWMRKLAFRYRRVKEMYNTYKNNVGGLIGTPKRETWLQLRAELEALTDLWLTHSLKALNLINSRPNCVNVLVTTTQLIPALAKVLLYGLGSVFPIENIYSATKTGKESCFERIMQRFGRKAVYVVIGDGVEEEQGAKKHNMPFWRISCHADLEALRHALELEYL
# Target sequence (Q15475 whole entry, looked up): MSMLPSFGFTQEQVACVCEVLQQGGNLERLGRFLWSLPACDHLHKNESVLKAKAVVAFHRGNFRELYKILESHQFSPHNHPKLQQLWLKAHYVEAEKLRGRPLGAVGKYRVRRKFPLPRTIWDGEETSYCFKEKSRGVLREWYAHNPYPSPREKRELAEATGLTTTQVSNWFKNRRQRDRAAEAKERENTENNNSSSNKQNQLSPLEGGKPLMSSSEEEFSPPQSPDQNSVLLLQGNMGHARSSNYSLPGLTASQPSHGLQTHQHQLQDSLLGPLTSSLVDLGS
#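 GST-Six1 + His-Eya2 (5X stock: 250/500 nM); Tris pH 8.0, 300 mM NaCl, 0.05% BSA, 0.02% Tween 20; GSH donor/Ni acceptor beads; 1 h 37 °C dark; AlphaScreen readout.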
# gsp agonist – qHTS for Agonist of gsp, the Etiologic Mutation Responsible for Fibrous Dysplasia/McCune-Albright Syndrome: qHTS | Potency, µM (top dose mostly 76.9 µM), for inactives: at the top dose activation (cAMP increase), hits mostly activators | AID 624287, 2012 | hit rate 0.13% among 340,000 | gsp mutant cells, cAMP HTRF, 30 min; control for the full effect not named in the record; active = well fitted activation curve with a large enough effect; inconclusive = small, poorly fitted or top-dose-only effect, or another doubt; inactive = no such curve, though single readings can be large or run the other way; cell line not stated here;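 further: phosphodiesterase inhibitor Ro 20-1724 added with compounds to block cAMP breakdown; potency means the concentration at half of the fitted maximal effect; nearly all actives have a fitted effect of over 60% in size; about a fifth of the inactives were tested at one dose only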
#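 Cells stably selected in G418 were plated at 2000/well, grown 16-24 hr, then given compounds in DMSO with the PDE inhibitor […] (300 uM solution added) for 30 min at 37C; cAMP was read by HTRF.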
# D2 agonist – Beta-Arrestin HTS for Positive Allosteric Modulators of the Human D2 Dopamine Receptor: Agonists; AID 624465, 2012; D(2) dopamine receptor (Homo sapiens), P14416; hit rate 0.084% among 360,000; activation, % (no concentration beside the values); DiscoveRx PathHunter D2 beta-arrestin, luminescence, 90 min; 100% = 57 uM dopamine signal; in the data active = activation above about 40%; inconclusive = about 15% to 40%; inactive = below about 15%; further: compound concentration not given in the record; the text of the record calls up to 30% inactive
#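 Agonist mode: compounds alone added to overnight-plated D2 PathHunter cells for 90 min at 37 C, with 57 uM final dopamine (EC100) defining full response. Beta-arrestin recruitment detected by chemiluminescent reagent, read after 1 h at ambient temperature.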
# CtBP-E1A blk – qHTS Assay for Inhibitors of the CtBP/E1A Interaction. CtBP / adenovirus E1A interaction (AlphaScreen). AlphaScreen GST-E1A/His-CtBP binding, 1536-well; active compounds read low; control for the full effect not named in the record. activity change, % (no concentration beside the values). hit rate 0.49% among 340,000; in the data active means activity change below about -65%; inconclusive means about -30% to -65%; inactive means above about -30%; further: on the % scale 0 is the no-effect control and ±100 the full control effect
#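 GST-E1A and His-tagged CtBP (125 nM each as 5X stock) were preincubated with pin-transferred compound for 2 h at 37 °C in the dark, then glutathione donor and nickel acceptor beads were added for 1 h before AlphaScreen reading.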
# D2 PAM – Beta-Arrestin HTS for Positive Allosteric Modulators of the Human D2 Dopamine Receptor: Potentiators | DiscoveRx D2 beta-arrestin cells, luminescence, 90 min; 100% = 57 uM dopamine signal | potentiation, % (concentration not given with the values) | hit rate 0.23% among 360,000 | D(2) dopamine receptor (Homo sapiens), P14416; active = potentiation of 50% or more; inconclusive = 30% to 50%; inactive = 30% or less;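 further: compound concentration not given in the record; tested on top of an EC20 dose of dopamine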
#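 PathHunter beta-arrestin assay in DiscoveRx D2 cells. Compounds were added with an EC20 of dopamine (50 nM final) for 90 min at 37 deg C. Luminescence was read 1 h after detection reagent, with 57 uM dopamine as the EC100 control.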
# An asterisk follows results filed as active; ? = inconclusive; nt = not tested or not shown; [ ] = another dose, or the depositor's remark.
No.	Structure	gsp antag	Six1-Eya2 inh	gsp agonist
1	CC(=O)NC(c1ccccc1)c1nc(-c2cc3ccccc3o2)cs1 (stereo not drawn)	nt	0	nt
2	Cc1c(C(=O)Nc2cccc(S(=O)(=O)N3CCOCC3)c2)oc2ccccc12	-22%	-14	4%[15.4 µM]
3	CCCCCC#CCN1CCN(C23CC4CC(CC(C4)C2)C3)CC1	-8%	-10	?
4	Cc1ccc2[nH]c3c(c2c1)CCCC3C(N)=O (stereo not drawn)	11%	6	26%
5	CC(CN1CCN(C)CC1)OC(=O)c1ccc(F)cc1 (stereo not drawn)	11%	10	-3%[15.4 µM]
6	COC(=O)COc1ccc(S(=O)(=O)Nc2cc([N+](=O)[O-])ccc2C)cc1	-5%	7	-12%
7	COc1ccccc1OCCn1cc(C(=O)O)c2ccccc21	-14%	19	-13%[15.4 µM]
8	CC(=O)c1c(C)[nH]c(C(=O)NCCc2c[nH]c3ccccc23)c1C	-7%	-9	-5%
9	COc1ccc(OC)c(CNC(=O)Cn2nc(C)c3c(C)n(-c4ccc(C)cc4)nc3c2=O)c1	-23%	1	-3%
10	O=C(CCNS(=O)(=O)c1ccccc1C(F)(F)F)N1CCN(S(=O)(=O)c2cccc(F)c2)CC1	-12%	7	-2%[15.4 µM]
11	Cc1ccc(NCc2nnc(SCC(=O)NCc3ccco3)n2CC2CCCO2)c(C)c1 (stereo not drawn)	3%	-3	18%
12	COc1cccc(N=C2NC(=O)/C(=C/c3cc([N+](=O)[O-])ccc3O)S2)c1	8%	6	?

No.	D2 agonist	CtBP-E1A blk	D2 PAM
1	4.4	0	-3
2	-1.7	-14	-11
3	-3.9	nt	-18
4	1.4	5	10
5	-4.7	1	-17
6	2.2	13	-2
7	0.0	0	2
8	-3.1	-1	-10
9	0.1	-6	-6
10	-0.6	1	-12
11	-2.2	3	-15
12	-3.9	3	-3

# New compounds follow.
No.	Structure	gsp antag	Six1-Eya2 inh	gsp agonist
13	O=C(O)CC(Cn1[nH]nnc1=S)c1ccccc1 (stereo not drawn)	3%	3	?
14	Cc1cnc(CN(C)C(=O)C2CCC(=O)N(CCc3ccccc3)C2)[nH]1 (stereo not drawn)	-14%	5	16%
15	Cc1nnc(-c2cccc(C(F)(F)F)c2)nc1N1CCOCC1	nt	21	-4%[15.4 µM]
16	CCOC(=O)c1cn(CC(=O)Nc2ccc(C(C)C)cc2)nn1	9%	1	4%
17	C/C(=N/Nc1ccccc1[N+](=O)[O-])c1ccc([N+](=O)[O-])cc1	5%	-6	12%
18	CCN(CC)c1ccc(NC(=O)C2=CCN(S(=O)(=O)c3ccc(F)cc3)CC2)c(C)c1	-11%	-20	30%
19	COc1ccc(CNC(=O)COC(=O)Cc2ccc(Br)cc2)cc1	3%	2	9%
20	N#Cc1ccc(COC(=O)C2CC(=O)N(CCc3ccccc3)C2)cc1 (stereo not drawn)	-1%	-4	7%[15.4 µM]
21	CCC1(CC)NC(=O)N(CC(=O)OC(C)C(=O)Nc2cc([N+](=O)[O-])ccc2OC)C1=O (stereo not drawn)	-2%	7	-19%
22	C=CCSCC1Nc2cc(Cl)c(S(N)(=O)=O)cc2S(=O)(=O)N1 (stereo not drawn)	4%	-1	nt
23	CN(CC(=O)Nc1cccc(F)c1)C(=O)c1ccccc1Cc1ccccc1	-12%	5	4%
24	CCOCCCn1c(=S)[nH]c2cc(C(=O)NCCOC)ccc2c1=O	-5%	-1	?

No.	D2 agonist	CtBP-E1A blk	D2 PAM
13	-2.2	3	-8
14	-1.4	1	-1
15	-4.5	-12	-22
16	1.2	-2	-1
17	2.4	nt	-7
18	-7.6	-18	-4
19	-2.9	-5	-3
20	-5.4	5	-5
21	-2.4	-6	8
22	-1.9	-1	-3
23	0.4	-3	-10
24	-2.1	8	-2

# Sorted by SMILES length (descending): some entries from above
No.	Structure	gsp antag	Six1-Eya2 inh	gsp agonist
21	CCC1(CC)NC(=O)N(CC(=O)OC(C)C(=O)Nc2cc([N+](=O)[O-])ccc2OC)C1=O (stereo not drawn)	-2%	7	-19%
24	CCOCCCn1c(=S)[nH]c2cc(C(=O)NCCOC)ccc2c1=O	-5%	-1	?
16	CCOC(=O)c1cn(CC(=O)Nc2ccc(C(C)C)cc2)nn1	9%	1	4%

No.	D2 agonist	CtBP-E1A blk	D2 PAM
21	-2.4	-6	8
24	-2.1	8	-2
16	1.2	-2	-1

# New compounds follow:
No.	Structure	gsp antag	Six1-Eya2 inh	gsp agonist
25	CSc1ccc(CNc2ccccn2)cc1	9%	-2	-20%
26	CCc1ccc(C(=O)N2CCN(c3ccc(NC(=O)c4ccco4)cc3)CC2)cc1	?	6	0%
27	O=[N+]([O-])c1ccc2[nH]nc(-c3ccccc3)c2c1	2%	-13	0%
28	O=C(COc1cccc2ccccc12)NNC(=O)CSCCO	8%	3	8%
29	CCC(C)[C@H]1COCCS(=O)(=O)N1Cc1ccc(Br)cc1 (stereo partly drawn)	-13%	0	9%
30	CCOc1cc(NC(=S)NCCCN2CCOCC2)c(OCC)cc1NC(=O)C(C)C	-5%	-2	-26%
31	CCN1C(=O)/C(=C/c2ccc(OC)c(OC)c2)N=C1SCC(=O)NCc1ccco1	1%	-5	5%[15.4 µM]
32	CCCCC(=O)Nc1cccc2c1C(=O)N(c1ccccc1)C2=O	-18%	9	?
33	CCc1c(C(=O)Nc2cc(C)ccc2OC)[nH]c(C)c1C(C)=O	0%	-2	?
34	Cc1cc(C)cc(OCCNC(=O)C2CCN(S(=O)(=O)c3ccccc3)CC2)c1	-3%	0	-19%

No.	D2 agonist	CtBP-E1A blk	D2 PAM
25	-1.3	-3	-8
26	-2.0	1	-9
27	2.8	2	3
28	-1.5	3	-15
29	-3.6	9	-13
30	-0.2	-13	-8
31	-1.9	6	-5
32	-1.3	7	-11
33	-3.9	-1	-11
34	-3.1	7	11

# 14 of the compounds above, with values under each structure.
# Screens in order – gsp antag, Six1-Eya2 inh, gsp agonist, D2 agonist, CtBP-E1A blk, D2 PAM
21. CCC1(CC)NC(=O)N(CC(=O)OC(C)C(=O)Nc2cc([N+](=O)[O-])ccc2OC)C1=O (stereo not drawn)
  -2%, 7, -19%, -2.4, -6, 8
22. C=CCSCC1Nc2cc(Cl)c(S(N)(=O)=O)cc2S(=O)(=O)N1 (stereo not drawn)
  4%, -1, nt, -1.9, -1, -3
23. CN(CC(=O)Nc1cccc(F)c1)C(=O)c1ccccc1Cc1ccccc1
  -12%, 5, 4%, 0.4, -3, -10
24. CCOCCCn1c(=S)[nH]c2cc(C(=O)NCCOC)ccc2c1=O
  -5%, -1, ?, -2.1, 8, -2
25. CSc1ccc(CNc2ccccn2)cc1
  9%, -2, -20%, -1.3, -3, -8
26. CCc1ccc(C(=O)N2CCN(c3ccc(NC(=O)c4ccco4)cc3)CC2)cc1
  ?, 6, 0%, -2.0, 1, -9
27. O=[N+]([O-])c1ccc2[nH]nc(-c3ccccc3)c2c1
  2%, -13, 0%, 2.8, 2, 3
28. O=C(COc1cccc2ccccc12)NNC(=O)CSCCO
  8%, 3, 8%, -1.5, 3, -15
29. CCC(C)[C@H]1COCCS(=O)(=O)N1Cc1ccc(Br)cc1 (stereo partly drawn)
  -13%, 0, 9%, -3.6, 9, -13
30. CCOc1cc(NC(=S)NCCCN2CCOCC2)c(OCC)cc1NC(=O)C(C)C
  -5%, -2, -26%, -0.2, -13, -8
31. CCN1C(=O)/C(=C/c2ccc(OC)c(OC)c2)N=C1SCC(=O)NCc1ccco1
  1%, -5, 5%[15.4 µM], -1.9, 6, -5
32. CCCCC(=O)Nc1cccc2c1C(=O)N(c1ccccc1)C2=O
  -18%, 9, ?, -1.3, 7, -11
33. CCc1c(C(=O)Nc2cc(C)ccc2OC)[nH]c(C)c1C(C)=O
  0%, -2, ?, -3.9, -1, -11
34. Cc1cc(C)cc(OCCNC(=O)C2CCN(S(=O)(=O)c3ccccc3)CC2)c1
  -3%, 0, -19%, -3.1, 7, 11
